Screening results as filed in PubChem.
Rango dissoc inh – prevents RanGTP from dissociating the Rango-importin beta complex; 0.071% of 340,000 active; Potency, µM (top dose mostly 46.1 µM), without a hit: top-dose activity change, negative = inhibition; O95149+P62826; Biochemical FRET Rango-importin beta, RanGTP-induced dissociation; active means falling FRET ratio curve, often poorly fitted, with flat reads before Ran was added; inconclusive means other falling curves, or compound fluorescence or quenching; inactive means flat or rising ratio curve;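 further: potency means the concentration at half of the fitted maximal effect; % of control where 0% means no effect; nearly all actives have a fitted effect of over 45% in size; -100% = wells without RanGTP and RCC1; the record marks most hits as doubtful in a second field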
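Rango (0.1 uM)–importin beta (0.25 uM) complex; RanGTP-RCC1 trigger; 45 min RT; CFP/YFP FRET read.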
GLA inh pH 4.5 – inhibitors of human alpha-galactosidase A at pH 4.5; P06280; purified enzyme, 4-MU-alpha-Gal fluorescence, pH 4.5; activity change, negative = inhibition, % at 105 µM; 230,000 tested, under 10 active; AID 1467; inconclusive = small, poorly fitted or top-dose-only inhibition, or a rising curve; inactive = flat fitted curve, though single readings scatter; no compound was filed as active;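 further: 0% = full activity with enzyme and -100% = basal without enzyme; dose as in the result columns while the protocol names 77 µM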
miR-21 FLuc – miR-21 reporter, rising signal; HeLa miR-21 FLuc reporter, luciferase, 48 h; Potency, µM (doses to about 38.3 µM), inactives show at the top dose reporter change, positive = more light; 340,000 tested, under 10 active; active = well fitted rising curve with a large enough effect; inconclusive = small, poorly fitted or top-dose-only effect; inactive = no such curve, though single readings can be large or run the other way;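 further: % of control where 0% means no effect; miR-21 action dims this reporter so a rising signal means less miR-21 action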
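HeLa cells stably expressing CMV-driven firefly luciferase with a downstream miR-21 binding sequence, endogenously expressing miR-21, were treated with titrations (up to about 40uM final) for 48 hours at 37 degree Celsius. Luciferase luminescence was read after lysis.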
Rango-impB inh – Rango-importin beta binding inhibition | Rango CFP/YFP FRET sensor + importin beta, 45 min | Potency, µM (highest dose often 92.2 µM), for the others: at the highest dose inhibition of complex formation | 0.031% of 340,000 active | AID 540263; active = rising FRET ratio curve, often small or poorly fitted; inconclusive = mostly compound fluorescence or quenching in the first reads; inactive = flat curves in all reads;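 further: potency means the concentration at half of the fitted maximal effect; 0% = DMSO wells and 100% = buffer wells lacking importin beta; nearly all actives have a fitted effect of over 15% in size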
Target sequence (Q14974 whole entry, looked up): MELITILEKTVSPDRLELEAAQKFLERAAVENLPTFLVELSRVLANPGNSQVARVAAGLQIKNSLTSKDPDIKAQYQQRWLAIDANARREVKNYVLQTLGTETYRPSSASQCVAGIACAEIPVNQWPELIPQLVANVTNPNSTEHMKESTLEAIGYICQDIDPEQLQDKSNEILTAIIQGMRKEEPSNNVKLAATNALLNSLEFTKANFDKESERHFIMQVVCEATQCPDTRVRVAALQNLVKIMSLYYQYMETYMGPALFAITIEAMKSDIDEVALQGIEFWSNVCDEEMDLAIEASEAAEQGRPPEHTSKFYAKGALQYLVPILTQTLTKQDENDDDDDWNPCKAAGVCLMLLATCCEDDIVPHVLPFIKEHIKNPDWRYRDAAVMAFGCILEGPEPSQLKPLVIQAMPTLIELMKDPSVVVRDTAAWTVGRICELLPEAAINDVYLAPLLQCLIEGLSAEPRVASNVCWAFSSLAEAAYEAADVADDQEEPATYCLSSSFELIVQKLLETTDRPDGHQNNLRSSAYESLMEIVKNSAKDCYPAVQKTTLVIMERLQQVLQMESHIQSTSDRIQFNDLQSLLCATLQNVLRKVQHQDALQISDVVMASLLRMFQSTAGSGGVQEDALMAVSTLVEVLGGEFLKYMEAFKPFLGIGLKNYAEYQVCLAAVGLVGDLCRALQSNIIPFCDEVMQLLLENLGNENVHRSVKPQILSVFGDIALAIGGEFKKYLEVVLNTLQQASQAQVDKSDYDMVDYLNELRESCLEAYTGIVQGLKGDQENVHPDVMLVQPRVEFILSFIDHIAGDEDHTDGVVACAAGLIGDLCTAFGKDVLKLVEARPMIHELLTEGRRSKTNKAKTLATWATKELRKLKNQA
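FRET biosensor Rango (snurportin 1 IBB between N-terminal EYFP and C-terminal Cerulean), 50 nM in PBS/1 mM DTT/0.02% Tween-20/0.1% BSA, preincubated 5 min RT with compound; 0.125 microM importin beta added, 45 min RT, CFP/YFP FRET ratio read.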
The depositor's hits bear a star; ? = inconclusive; / = no result given; & = joins results of further samples; [ ] = dose if it differs, or a comment.

#	GLA inh pH 4.5	Rango-impB inh	Rango dissoc inh	miR-21 FLuc	SMILES
1	2.6	3.2%	2.3%	-10.0%	CC(C)Cc1nc(Nc2ccc(S(=O)(=O)N3CCCC3)cc2)c2nnn(Cc3ccccc3)c2n1
2	4.2	4.0%	-5.6%	-51.7%	COC(=O)[C@@H]1CCCN1C(=O)CCc1nnc(CCc2c[nH]c3ccccc23)o1
3	-22.6	-2.2%	-9.3%	-12.5%	Cc1ccc(CNC(=O)c2cc(COc3c(F)cccc3F)on2)s1
4	-6.4	6.4%	-12.0%	-5.8%	Cc1ccc(S(=O)(=O)N2CCC(C(=O)N[C@@H](C)C(=O)NCCc3ccccc3)CC2)cc1
5	12.6	-0.3%	7.3%	3.1%	Cc1cc(C)cc(OCC(=O)Nc2ccc(N3CCN(S(C)(=O)=O)CC3)cc2)c1
6	/	-0.4%	1.6%	-5.2%	Cc1ccc(CNc2ccccc2C(=O)O)s1
7	/	-2.7%	-9.6%	3.2%	COc1ccc(C(=O)N2CCN(c3ccc(NC(=O)Cc4ccccc4)cc3)CC2)cc1
8	1.9	2.1%	-1.2%	-3.7%	CC1(C)Cc2c(C#N)c(NCCN3CCOCC3)nc(-c3ccccc3)c2CO1
9	-2.5	0.6%	-8.5%	-4.5%	Cc1cc(C(=O)Nc2cccnc2)on1
10	-13.2	?	11.6%	-0.3%	Nc1c(C(=O)NC23CC4CC(CC(C4)C2)C3)sc2nc3c(c(C(F)(F)F)c12)CCC3
11	8.2	-2.6%	-2.8%	-0.8%	O=S(=O)(c1cccc(-c2nnco2)c1)N1CCOCC1
12	-1.1	?	-3.7%	-29.9%	CC/C(C)=N/Nc1nc(-c2cc3cccc(OC)c3oc2=O)cs1
13	6.0	-1.3%	8.1%	-3.7%	Cc1ccc(C)c(N2CCN(C(=S)NC3CCCCC3)CC2)c1
14	3.4	-3.0%	11.6%	-33.8%	COc1ccc(N=C2C(=Nc3ccc(OC)cc3)N(c3ccc(OC)cc3)C(=S)N2C(=O)c2ccc(OC)cc2)cc1
15	-0.5	-1.9%	4.9%	-10.2%	CCN(CC)S(=O)(=O)c1ccc(C(=O)C(C#N)c2ccccn2)cc1 (stereo unspecified)
16	/	?	?	1.9%	CCOc1cc(/C=C2/C(=N)N3C(=NC2=O)SN=C3S(C)(=O)=O)ccc1OC(=O)c1ccco1
17	3.6	2.7%	-12.0%	-5.5%	CCOC(=O)C1CCCN(C(=O)CNC(=O)Cn2ccc3ccccc3c2=O)C1 (stereo unspecified)
18	-9.5	2.8%	13.6%	-4.0%	COC(=O)c1ccc(CSc2nc(N3CCOCC3)c3c(c2C#N)CC(C)(C)OC3)o1
19	1.4	?	1.7%	-4.2%	CC(C)NC(=S)NC(=O)c1ccc(-c2ccccc2)cc1
20	-1.1	2.1%	10.0%	-9.5%	COCCN(C(=O)Cc1cccs1)c1nnc(-c2ccncc2)s1
21	/	1.5%	10.3%	/	Cc1cc(C(=O)NNC(=O)c2ccc(Cl)cc2Cl)c(C)o1
22	-4.2	8.4%	-3.3%	-0.7%	CC(CN1CCCCCC1)C(=O)NN (stereo unspecified)
23	-2.4	-1.2%	0.9%	-6.0%	COc1cccc(N2CCN(C(=O)C3CCCN(S(=O)(=O)c4cnc[nH]4)C3)CC2)c1 (stereo unspecified)
24	/	-1.5%	2.6%	3.1%	Cc1oc(-c2ccc(Cl)cc2)nc1CS(=O)CC(=O)NCc1ccc2c(c1)OCO2 (stereo unspecified)
25	-4.8	1.0%	-13.2%	-2.4%	CCC(C)(C(=O)NC1CCCC1)N(CC1CCCO1)C(=O)CNC(=O)c1ccccc1 (stereo unspecified)
26	/	2.5%	?	5.1%	CN(C)N=Nc1ccc(S(=O)(=O)NC(=O)Cc2ccccc2)cc1
27	/	-2.1%	-7.5%	/	CCOc1ccc(OCc2ccc(C(=O)NN=Cc3ccc[nH]3)cc2)cc1
28	/	?	2.6%	3.5%	COc1ccc(C(=O)C2CCN(CC(=O)NCc3ccccc3)CC2)cc1
29	-6.8	0.8%	-6.7%	-54.4%	O=C(CSc1cccs1)NCCc1ccccc1
30	1.7	0.7%	-1.4%	-0.4%	CCC(C)[C@H](NC(=O)N1CCCC1)C(=O)OC (stereo partly specified)

Four compounds from above, arranged by molar mass, ascending.
#	GLA inh pH 4.5	Rango-impB inh	Rango dissoc inh	miR-21 FLuc	SMILES
22	-4.2	8.4%	-3.3%	-0.7%	CC(CN1CCCCCC1)C(=O)NN (stereo unspecified)
11	8.2	-2.6%	-2.8%	-0.8%	O=S(=O)(c1cccc(-c2nnco2)c1)N1CCOCC1
13	6.0	-1.3%	8.1%	-3.7%	Cc1ccc(C)c(N2CCN(C(=S)NC3CCCCC3)CC2)c1
18	-9.5	2.8%	13.6%	-4.0%	COC(=O)c1ccc(CSc2nc(N3CCOCC3)c3c(c2C#N)CC(C)(C)OC3)o1

(cont.)
#	GLA inh pH 4.5	Rango-impB inh	Rango dissoc inh	miR-21 FLuc	SMILES
31	/	-0.9%	-5.5%	6.9%	Cc1ccc(OCC(O)CN2CCC(Cc3ccccc3)CC2)c(C)c1 (stereo unspecified)
32	-2.3	-0.4%	-5.8%	-4.8%	CCOc1cccc(N2C(=O)CC(n3cnc4ccccc43)C2=O)c1 (stereo unspecified)
33	-2.4	-0.8%	-0.5%	-3.8%	CC1CCC(C(C)C)C(OCC[N+](C)(C)C)C1 (stereo unspecified)
34	5.0	?	-14.1%	-2.3%	Clc1ccc(Cn2cccc2C2=NCCO2)cc1
35	-6.8	-2.3%	0.3%	-5.3%	COc1ccc(Cl)cc1NC(=O)CN(C)C1CCCCC1
36	/	-2.1%	?	6.9%	CCCCNC(=S)N(CCN(CC)CC)Cc1cc2cc3c(cc2[nH]c1=O)OCCO3
37	-1.9	-1.8%	7.1%	-29.8%	O=C(O)c1cccc(NC(=S)N/N=C/c2cccnc2)c1
38	/	-1.0%	-10.2%	/	CC(C)(C)OC(=O)N1CCC(C(=O)Nc2ccc(C(=O)NCc3ccccc3)cc2)CC1
39	-4.1	0.0%	-7.5%	-39.6%&-36.1%	Nc1nn(-c2ccccc2)nc1C(=O)OCc1ccccc1
40	5.0	1.6%	8.4%	3.2%	COc1cc(SC)ccc1C(=O)OCC(=O)NC(=O)NC(C)C
41	-9.3	-3.7%	0.3%	-1.7%	COc1ccc2c(c1)C(C)=CC(C)(C)N2C(=O)C(C)N1C(=O)c2ccccc2C1=O (stereo unspecified)
42	-8.9	2.8%	-14.0%	-7.0%	O=C(CNC(c1ccccc1)c1ccccc1)Nc1c(F)cccc1F
43	-2.4	0.0%	-12.4%	-4.4%	N#CC1=C(N)OC2=C(C(=O)CC(c3ccccc3)C2)C1c1ccc2c(c1)OCO2 (stereo unspecified)
44	/	-4.6%	11.2%	/	COc1ccccc1C=NN=C(N)C(N)=NN=Cc1ccccc1OC
45	/	-0.9%	-4.3%	1.5%	Cc1cc(=O)[nH]c(N/N=C/c2ccc(-c3ccc([N+](=O)[O-])cc3)o2)n1
46	5.5	/	/	19.6%	COc1ccc(/C=N/NC(=O)c2cccnc2)cc1Cn1nc([N+](=O)[O-])c(Br)c1C
47	/	1.0%	-14.4%	-1.2%	CC1CN(CCOc2ccc(F)cc2)CC(C)O1 (stereo unspecified)
48	-4.2	2.9%	0.9%	-0.1%	Cc1ccc(S(=O)(=O)N2CCOCC2)cc1NC(=O)CSc1nnnn1C
49	/	1.6%	0.4%	/	O=C(CCNC(=O)c1ccc(Br)cc1)Nc1nc2ccccc2[nH]1
50	3.3	3.7%	7.2%	8.0%	O=C(CN1CCN(c2ccccn2)CC1)Nc1cccc(S(=O)(=O)N2CCOCC2)c1
51	-7.9	-3.9%	8.2%	-9.9%	CCOc1ccc(C(=O)OCCCN(C)C)cc1
52	-5.1	?	?	-14.9%	O=C(CN1C(=O)c2cccc3cccc1c23)Nc1cccnc1
53	-18.6	-4.1%	5.5%	-0.7%	COc1cccc(CN2C(=O)CCC2(C)C(=O)NC2CCCC2)c1 (stereo unspecified)
54	-1.8	0.5%	10.7%	9.6%	CCCC(=O)OC1CC(C)N(C(=O)c2ccccc2)c2ccc(C)cc21 (stereo unspecified)
55	/	2.8%	-3.2%	0.8%	O=C1NC(=Nc2ccccc2Br)SC1(CO)CO
56	-2.2	0.0%	12.8%	-0.8%	CC(=O)N1CCC(N(CCN2CCOCC2)C(=S)Nc2ccc(C)cc2)CC1
57	/	-1.6%	-8.1%	/	Cc1noc(C)c1NC(=O)N(C)C[C@H]1Oc2ccc(NC(=O)CCN3CCOCC3)cc2C(=O)N([C@H](C)CO)C[C@@H]1C
58	6.0	3.0%	6.1%	-2.2%	CCOc1ccc(NC(=O)c2ccccc2NC(=O)CN2CCN(C(C)=O)CC2)cc1
59	-13.1	5.4%	0.4%	-8.6%	CC(C)n1c(=S)[nH]c2scc(-c3cccs3)c2c1=O
60	-9.0	1.3%	0.6%	-10.9%	Cc1ccc(-c2csc3ncnc(SCC(N)=O)c23)cc1
61	/	-3.2%	-1.2%	/	O=C(CSC(=S)N1CCCC1)Nc1ncc(Cl)cc1Cl
62	-5.5	-0.9%	-9.4%	-9.2%	O=c1c2ccccc2nc(SCc2ccc([N+](=O)[O-])cc2)n1CCCO
63	-3.7	/	/	-9.0%	CC(=O)c1cc2c(cc1NC(=O)CSc1nc3ccccc3[nH]1)OCO2
64	-1.5[21.1 µM]	-0.1%	27.0%	-2.4%	CCN(C(C)=O)c1nc(CCl)cs1
65	/	-1.1%	3.9%	/	COc1ccccc1NS(=O)(=O)c1ccc(C(=O)NCc2ccco2)cc1
66	3.7	-2.1%	0.8%	-1.1%	Cc1ccc(N2C(=O)N(CC(=O)Nc3cc(C)cc(C)c3)C(=O)C2C)cc1 (stereo unspecified)
67	-12.8	-0.3%	-4.2%	-69.8%	COc1ccc(OCCOc2ccccc2[N+](=O)[O-])cc1
68	6.2&5.3	-2.7%	-7.5%	-5.2%	CC(=O)OC(C)C[N+](C)(C)C (stereo unspecified)
69	/	-1.5%	11.2%	/	O=C1OC(CC(=O)N(Cc2nnc(-c3ccc(Cl)cc3)o2)C2CC2)c2ccccc21 (stereo unspecified)
70	/	0.6%	-4.8%	2.1%	Cc1ccc(C(C)C)c(OCC(=O)N/N=C2\CC(=O)CC(C)(C)C2)c1
71	4.0	-2.6%	-13.6%	3.3%	COc1ccc(N(C(=O)c2cccnc2)S(=O)(=O)c2cccs2)cc1
72	11.6	/	/	-0.2%	N#CCCN(Cc1cccnc1)C(=S)NC(=O)C1CC1
73	-4.3	-2.5%	-2.8%	1.8%	CCOC(=O)Nc1cc2c(C)cc(=O)oc2cc1C
74	-9.1	0.2%	1.8%	3.3%	Cc1cccc(-c2noc(CN(C(=O)C(c3ccccc3)c3ccccc3)C(C)C)n2)c1
75	-4.1	-0.8%	3.6%	-5.7%	Fc1cc(F)cc(-c2oncc2-c2nnnn2-c2ccccc2)c1
76	-5.8	0.7%	2.2%	-0.4%	CN(CCNC(=O)CN1CCN(Cc2ccccc2Cl)C1=O)Cc1ccccc1
77	2.2	?	-5.0%	-4.0%	COc1ccccc1N1CCN(S(=O)(=O)c2ccccc2F)CC1
78	3.0	-3.3%	2.0%	-20.3%	O=C(Cn1nnc(-c2ccc3c(c2)OCO3)n1)N1CCOCC1
79	1.7	0.3%	5.4%	-4.2%	O=P(c1ccccc1)(c1ccccc1)C(c1ccco1)N1CCOCC1 (stereo unspecified)
80	2.3	-0.1%	-6.9%	-1.4%	Cc1ccc(S(=O)(=O)N(C)C)cc1-n1c(SCC(=O)Nc2ccc(F)cc2)nc2ccccc2c1=O
81	-1.3	0.6%	5.2%	-49.2%	CC(C)(C)c1ccc(OCCCC(=O)N2CCOCC2)cc1

Arranged by the number under GLA inh pH 4.5 (smallest number first): 3 from the list above.
#	GLA inh pH 4.5	Rango-impB inh	Rango dissoc inh	miR-21 FLuc	SMILES
76	-5.8	0.7%	2.2%	-0.4%	CN(CCNC(=O)CN1CCN(Cc2ccccc2Cl)C1=O)Cc1ccccc1
81	-1.3	0.6%	5.2%	-49.2%	CC(C)(C)c1ccc(OCCCC(=O)N2CCOCC2)cc1
77	2.2	?	-5.0%	-4.0%	COc1ccccc1N1CCN(S(=O)(=O)c2ccccc2F)CC1

This is a subset, so the mix of outcomes need not match the whole.
